Screening data from PubChem.
eIF4H FP inh = inhibitors of RNA binding by human eIF4H. eIF4H fluorescence polarization binding assay. 290,000 compounds, 0.94% hits. Q15056. inhibition, % at 35 µM;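 active = 50% or more with normal probe brightness, or confirmed in later tests; inconclusive = above 50% with abnormal brightness, or retests that disagree; inactive = below 50% or failed in later tests; about a fifth of its hits are not listed in these tables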;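 also: calls also rest on retests at 20 µM and on dose response follow-up; 0% = protein and probe with vehicle and 100% = probe without protein; strong numbers were not always called active; many hits fall short of the cut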
Yeast UUG start = modulators of start codon recognition fidelity in yeast | S. cerevisiae UUG-firefly luciferase reporter, luminescence/redox ratio | activity score, % at 18.7 µM | 350,000 compounds, 0.13% hits;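 active = replicate mean at a twofold rise or more, about +100% in these data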;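 also: firefly luciferase made from a UUG start codon reports start codon fidelity; reporter light over untreated wells divided by growth signal over untreated wells; some hits fall short of that in this replicate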
MT1-MMP act inh = inhibitors of human MT1-MMP activation | HT1080 RFP-PRO-GFP cells, GFP/RFP ratio fluorescence, overnight; percent of plate control window, DMSO zero | P50281 | 360,000 compounds, 0.061% hits | GFP/RFP ratio change, % at 20 µM;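 active = GFP/RFP ratio change of at least 30% with cell ATP level not reduced by more than half and red fluorescence within 50% of control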; also: strong numbers were not always called active
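Test system: HT1080 cells expressing an RFP-PRO-GFP fluorescent reporter construct / Compound dosing: single-point 20 µM compound, 1% DMSO / Schedule: cells overnight before dosing, compound overnight, 37 °C, 5% CO2 / Evaluation: GFP/RFP fluorescence ratio / Control set: DMSO and RFP-L50D-GFP cell wells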
Env fusion inh = inhibitors of HIV Env-mediated cell fusion; 360,000 compounds, 1.1% hits; inhibition, % at 12.3 µM; HeLa-JRFL Env/CEM21 cell fusion, luciferase;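 active = mean replicate inhibition score of at least 50 and every replicate individually at or above 50; inconclusive = only one of the two criteria met; inactive = mean below 50 and not all replicates reaching 50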;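 also: 0% = plate neutral controls and 100% = maraviroc near 300 nM; one replicate is shown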
PABP polyA inh = PABP-poly(A) binding inhibition | PABP-poly(A) RNA binding, fluorescence polarization | AID 2014 | 290,000 compounds, 1% hits | inhibition, % at 35 µM | P11940;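 active = 50% or more with normal probe brightness, or confirmed in later tests; inconclusive = above 50% with abnormal brightness, or retests that disagree; inactive = below 50% or failed in later tests; about a fifth of its hits are not listed in these tables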;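 also: calls also rest on retests at 20 µM and on dose response follow-up; controls were probe without protein and protein plus probe with vehicle; some compounds called inactive have numbers as strong as hits; many hits fall short of the cut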
Target sequence (P11940 whole entry, looked up): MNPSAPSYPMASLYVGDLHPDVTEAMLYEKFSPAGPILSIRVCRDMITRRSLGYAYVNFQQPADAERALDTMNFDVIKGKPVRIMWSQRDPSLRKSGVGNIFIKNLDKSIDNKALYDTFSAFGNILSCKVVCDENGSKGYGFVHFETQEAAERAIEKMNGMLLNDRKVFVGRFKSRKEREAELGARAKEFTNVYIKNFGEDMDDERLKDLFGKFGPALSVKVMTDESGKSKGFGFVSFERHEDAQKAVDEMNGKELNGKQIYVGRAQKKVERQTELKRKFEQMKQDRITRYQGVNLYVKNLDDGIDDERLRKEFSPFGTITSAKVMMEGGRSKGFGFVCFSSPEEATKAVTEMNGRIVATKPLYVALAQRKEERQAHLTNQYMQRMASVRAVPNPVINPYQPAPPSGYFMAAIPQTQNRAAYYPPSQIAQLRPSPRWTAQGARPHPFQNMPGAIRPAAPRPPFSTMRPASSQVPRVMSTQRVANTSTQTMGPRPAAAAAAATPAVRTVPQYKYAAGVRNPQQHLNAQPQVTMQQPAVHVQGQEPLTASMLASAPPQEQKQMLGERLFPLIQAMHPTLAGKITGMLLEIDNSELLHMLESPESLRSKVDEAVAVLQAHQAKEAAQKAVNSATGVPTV
CSC inhib = cancer stem cell inhibition. inhibition, % at 7.5 µM. cancer stem cell-like cells viability, luminescence. 300,000 compounds, 1.1% hits;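 active = mean at 75% or more and at least half the replicates too; inconclusive = mean and replicates disagree; tested in HMLE shEcad cells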;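 also: 0% = median of negative and 100% = median of positive control wells; the first replicate is given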
Rce1 inhib = inhibitors of yeast Ras-converting enzyme; 290,000 compounds, 0.27% hits; yeast membranes, quenched prenylated peptide cleavage fluorescence; calls only; Q03530;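 active = fall in fluorescence gain of 50% or more versus controls, with final raw signal at or below 3038400; inconclusive = same 50% fall but final raw signal above 3038400; inactive = fall in fluorescence gain under 50%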;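 also: plate controls were neutral control wells for no effect and wells lacking membranes for full effect; tested at 10 µM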
Target sequence (Q03530 whole entry, looked up): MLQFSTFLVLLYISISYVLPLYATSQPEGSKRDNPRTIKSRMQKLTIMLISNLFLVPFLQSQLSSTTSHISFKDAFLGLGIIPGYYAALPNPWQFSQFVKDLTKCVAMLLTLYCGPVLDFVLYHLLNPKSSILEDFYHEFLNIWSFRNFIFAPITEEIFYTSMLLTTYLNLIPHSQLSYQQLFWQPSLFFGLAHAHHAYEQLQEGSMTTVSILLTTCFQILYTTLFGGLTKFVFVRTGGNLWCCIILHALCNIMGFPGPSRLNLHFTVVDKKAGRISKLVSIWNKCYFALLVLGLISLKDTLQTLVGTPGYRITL
eIF4H FP inh retest = also measured in eIF4H FP inh; calls as there; inhibition, %; compound at 20 µM; confirmation average;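 mean of two retest wells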
PABP polyA inh retest = also measured in PABP polyA inh; calls as there; inhibition, %; compound at 20 µM; confirmation repeats;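 mean of two retest wells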
MT1-MMP act inh RFP = further read-out of MT1-MMP act inh, marked with its call; RFP signal change, %; measured here: RFP expression control read;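 0 = vehicle wells; hits needed this value within 50% of zero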
Starred values were filed as active, the others as inactive; i = inactive; ? = inconclusive; . = no result given.

Start of the listing, in advance:
SMILES	eIF4H FP inh	Yeast UUG start	MT1-MMP act inh	MT1-MMP act inh RFP	Env fusion inh	PABP polyA inh	CSC inhib	Rce1 inhib	others
COc1ccc(NC(=O)CC2SC3=NCCN3C2=O)cc1 (stereo not given)	-4	-17	-1	5	6	-3	-6	i
COC(=O)NNC(=O)c1ccc(Cl)cc1Cl	-5	.	5	1	11	7	-8	i
COc1ccc(CC(=O)Nc2cccc(C)n2)cc1OC	0	.	1	-3	2	1	-13	i

This part in full, previewed entries included:
SMILES	eIF4H FP inh	Yeast UUG start	MT1-MMP act inh	MT1-MMP act inh RFP	Env fusion inh	PABP polyA inh	CSC inhib	Rce1 inhib	others
COc1ccc(NC(=O)CC2SC3=NCCN3C2=O)cc1 (stereo not given)	-4	-17	-1	5	6	-3	-6	i
COC(=O)NNC(=O)c1ccc(Cl)cc1Cl	-5	.	5	1	11	7	-8	i
COc1ccc(CC(=O)Nc2cccc(C)n2)cc1OC	0	.	1	-3	2	1	-13	i
COc1ccccc1NC(=O)Cn1c(=O)oc2cc(S(=O)(=O)N3CCCC3)ccc21	1	-25	4	3	21	-12	0	i
COc1ccc(C(=O)N2CCN(C(=O)c3ccncc3)CC2)cc1	2	-3	-3	4	-46	-8	-14	i
C=CCn1c(-c2cccc3ccccc23)n[nH]c1=S	-14	-12	-17	-1	-60	-8	-6	i
Cc1csc(NC(CO)c2nc3ccccc3n2CCOCCO)n1 (stereo not given)	.	-27	3	2	-2	.	-18	i
O=C(COC(=O)CNC(=O)c1ccc(Cl)cc1)Nc1ccc2c(c1)OCCO2	0	.	-3	0	.	2	-8	i
O=C(NCC(=O)N1CCC2(CC1)NCCc1[nH]cnc12)c1ccccc1F	2	-13	2	2	6	-4	-9	i
COc1ccc(CCNC(=O)Cn2nnc(-c3cccc(OC)c3OC)n2)cc1OC	-19	-11	5	2	-9	6	-5	i
CCOC(=O)N(C)[C@H]1C[C@H]2c3[nH]c4ccccc4c3CCN2C[C@H]1[C@H](C)O	.	-11	-15	5	-24	.	.	.
COc1ccc(C2=NS(=O)(=O)N(C)C(C(=O)N3CCOCC3)=C2)cc1	2	-4	0	3	22	-10	-3	i
O=S(=O)(/C=C/c1ccccc1)NCc1ccccc1Cl	-11	.	-3	3	.	-6	.	i
CCNc1nc(Oc2ccc(C(=O)OCC)cc2)nc(SC)n1	-8	3	-5	-6	-26	8	-12	i
O=C(Nc1ccc(SC(F)(F)F)cc1)c1ccccn1	1	-39	-1	-8	-168	11	3	.
CCOC(=O)Cc1csc(NC(=O)CN2C(=O)c3ccccc3C2=O)n1	-9	.	-3	1	-3	-1	-4	i
CCCCN=C(C)C1=C(O)CSC1=O	6	-8	2	3	.	-6	-13	i
Nc1nc(SCC(=O)Nc2cccc(Oc3ccccc3)c2)n[nH]1	-1	.	2	0	4	-9	-7	i
O=C(O)C1C2CCCCC2=C2CCCCC2C1C(=O)O (stereo not given)	-1	-14	1	-1	-108	16	-15	i
CSc1ccc(Cn2c(C)c(C(=O)NCc3ccc4c(c3)OCO4)sc2=O)cc1	.	-24	2	-14	5	.	.	.
C/C(=N\Nc1nc2ccccc2[nH]1)c1ccc(Cl)s1	1	-25	11	-8	-13	-3	2	i
COc1ccc(-c2cc3ccc(O)cc3oc2=O)cc1OC	10	-20	1	3	-14	6	11	i
Cc1cccc(NC(=O)NCc2ccccn2)c1	0	-23	3	5	-55	1	-23	i
COc1ccc(-c2cc(C(=O)NCC3CCCCC3)[nH]n2)c(C)c1	.	-16	1	1	1	.	.	.
NC(=O)C1(N2CCCCC2)CCN(C(=S)Nc2cc(F)cc(F)c2)CC1	-2	.	0	1	9	-2	4	i
O=C(N/N=C/c1ccccc1OCc1ccccc1Cl)c1cccnc1	-7	3	-1	0	-15	9	29	i
Cc1ccc(Nc2nc(Oc3ccc(=O)[nH]n3)nc(N(C)C)n2)cc1	-4	-12	4	4	.	-6	-6	.
COC(=O)c1ccsc1NS(=O)(=O)c1ccccc1	20	2	-26	11	5	16	-7	i
Cc1nn(-c2ccccc2)c(C)c1/C=N/n1c(-c2ccc(C(C)(C)C)cc2)n[nH]c1=S	2	-17	-2	-7	.	7	80*	i
Cc1cc(C)cc(N(CC(=O)NCc2ccc3c(c2)OCO3)C(=O)CCC(=O)Nc2ccccn2)c1	13	-18	0	-6	.	1	8	i
COc1ccc2ccc(OCC(=O)N3c4ccccc4NC(=O)CC3C)cc2c1 (stereo not given)	.	36	0	-1	.	.	-15	.
Cc1cc(C)c(S(=O)(=O)N2CCCOC2CNC(=O)C(=O)NCCCn2ccnc2)c(C)c1 (stereo not given)	14	.	1	7	15	12	-11	i
O=C(Nc1cc(S(=O)(=O)N2CCOCC2)ccc1OCC(F)(F)F)C1CCCC1	.	-13	-2	2	8	.	.	.
Cc1c(C2=CCN(S(=O)(=O)c3ccc(Br)cc3)CC2)c2ccccc2n1C	101	.	3	8	7	6	13	i	eIF4H FP inh retest=0;PABP polyA inh retest=10
C/C(=N\NC(=O)C(=O)Nc1cc(Cl)ccc1Cl)c1ccncc1	9	-10	0	3	.	4	14	i
Cc1ccc(SC(C)C(=O)NCc2cccnc2)cc1 (stereo not given)	-3	-14	1	2	.	-7	-8	i

The last 2 compounds of the part above are carried over, then new ones follow.
SMILES	eIF4H FP inh	Yeast UUG start	MT1-MMP act inh	MT1-MMP act inh RFP	Env fusion inh	PABP polyA inh	CSC inhib	Rce1 inhib	others
C/C(=N\NC(=O)C(=O)Nc1cc(Cl)ccc1Cl)c1ccncc1	9	-10	0	3	.	4	14	i
Cc1ccc(SC(C)C(=O)NCc2cccnc2)cc1 (stereo not given)	-3	-14	1	2	.	-7	-8	i
O=C(CSc1n[nH]c(-c2ccccn2)n1)Nc1cccc(Cl)c1	6	-20	0	-3	.	14	1	i
Cc1ccc(-c2cn3nc(-c4ccccc4)c(-c4ccccc4)nc3n2)cc1	-5	-16	-57	-2	1	7	64	i
Cc1nccn1CC(=O)N/N=C/c1cccs1	-5	.	3	0	0	7	6	i
O=C(O)Cc1ccc(NCc2ccccc2Cl)cc1	-4	.	4	7	9	1	-7	i
COc1cccc(/C=C2\SC(=S)N(CCCC(=O)N3CCCC3)C2=O)c1	-11	-2	-2	0	3	-10	-1	i
CCOC(=O)Cc1csc(NC(=O)CSc2nnc(-c3ccncc3)n2Cc2ccco2)n1	.	-5	1	-9	?	.	.	i
CC1=NNC(=O)C1CCC(=O)N/N=C/c1ccccc1 (stereo not given)	10	.	2	6	-8	8	-6	i
Cc1ccc(OCC(=O)Nc2ccc(NC(=O)c3cccs3)cc2)c(C)c1	4	-12	-2	-2	3	1	21	.
COC(=O)c1ccc(OC)c(OC)c1Cl	-14	.	-1	-2	-13	-6	-11	i
CC(=O)c1ccc(NC(=O)CN2C(=O)NC(C)(c3ccc4c(c3)OCCO4)C2=O)cc1 (stereo not given)	.	-6	-3	3	.	.	-8	.
Cc1cccc(NCC(=O)N/N=C\c2cccc(Oc3ccccc3)c2)c1	-3	-18	0	-5	-2	9	29	i
N=C(N)c1ccc(O)cc1	0	-10	3	5	0	1	0	i

3 structures out of the list, ordered by number of heavy atoms, highest first:
SMILES	eIF4H FP inh	Yeast UUG start	MT1-MMP act inh	MT1-MMP act inh RFP	Env fusion inh	PABP polyA inh	CSC inhib	Rce1 inhib	others
CC(=O)c1ccc(NC(=O)CN2C(=O)NC(C)(c3ccc4c(c3)OCCO4)C2=O)cc1 (stereo not given)	.	-6	-3	3	.	.	-8	.
Cc1ccc(-c2cn3nc(-c4ccccc4)c(-c4ccccc4)nc3n2)cc1	-5	-16	-57	-2	1	7	64	i
O=C(O)Cc1ccc(NCc2ccccc2Cl)cc1	-4	.	4	7	9	1	-7	i

Later entries:
SMILES	eIF4H FP inh	Yeast UUG start	MT1-MMP act inh	MT1-MMP act inh RFP	Env fusion inh	PABP polyA inh	CSC inhib	Rce1 inhib	others
CC(Oc1ccc(Cl)cc1Cl)c1ccnc(N)n1 (stereo not given)	-1	-14	3	2	-16	5	8	.
Cc1ccc(CN2CCNC(=O)C2CC(=O)O)o1 (stereo not given)	-2	-17	4	5	-4	4	-7	i
COCCn1c(SCC(=O)NC2CC2)nc2ccccc21	.	-6	2	2	.	.	-6	.
COCCN(Cc1ccccc1)C(=S)Nc1ccc(Cl)cc1	12	.	-1	0	12	4	4	i
Cc1cc(C)n(CCCNC(=O)CN(C)S(=O)(=O)c2ccc(Cl)cc2)n1	.	-11	0	-4	-3	.	-6	i
COc1ccc(-c2nn(-c3ccccc3)cc2CNC[C@H]2O[C@@H](n3cnc(C(N)=O)n3)[C@H](O)[C@@H]2O)cc1	.	-1	-1	-3	-21	.	.	.
O=C(Nc1ccc(S(=O)(=O)N2CCCCC2)cc1)c1ccc(CN2CCOCC2)cc1	-4	-2	-7	-24	.	-2	17	i
CCn1c2ccccc2c2cc(NC(=O)COC(=O)c3ccc(NC(=O)CC#N)cc3)ccc21	.	.	1	-3	-37	.	1	i
O=C(NCc1cccc(Cl)c1)c1cnn2c1NC(c1ccco1)CC2C(F)(F)F (stereo not given)	-1	-12	3	4	15	0	6	i
O=C(CSCCc1ccccn1)Nc1ccccn1	-1	-11	-3	4	.	1	3	i
COc1cc(OC)c(NS(=O)(=O)c2c(C(=O)N3CCCCC3)c(C)n(C)c2C)cc1Cl	-7	-18	-3	2	8	6	-7	i
CC1=C(C)CC2C(=O)N(c3cccc4ccccc34)C(=O)C2C1 (stereo not given)	-10	-5	-3	-2	2	-15	11	i
Cc1cc(C)c2c(C)nn(C3CCCCC3)c2n1	-15	.	10	4	.	-8	-4	i
CCn1cc(C(=O)NCCc2ccc(OC)cc2)c(=O)c2ccc(C)nc21	0	-16	2	-1	-4	2	-7	i
COCCCn1c(SCC(=O)N2CCCC2=O)nc2ccccc2c1=O	.	-5	0	-2	1	.	.	.
CC(C(=O)N(C)C1CCS(=O)(=O)C1)N1C(=O)/C(=C/c2ccco2)SC1=S (stereo not given)	33	-15	15	18	1	19	3	i
CN(C)/C=N/n1cnc2ccccc2c1=O	-8	-2	-1	3	7	6	0	i
Cc1sc2ncnc(NCCCN3CCCC3=O)c2c1C	9	-18	0	5	20	-10	-4	i
O=C(NCCc1c[nH]c2ccccc12)c1c(Cl)nc2sccn12	-2	-16	19	9	.	-16	4	.
COc1ccc(N2C(C)=CS/C2=C(/C#N)c2nnc(N3CCOCC3)n2-c2ccccc2)cc1	-8	-20	0	4	.	3	-9	i

In the list so far, these contain a cyano group:
SMILES	eIF4H FP inh	Yeast UUG start	MT1-MMP act inh	MT1-MMP act inh RFP	Env fusion inh	PABP polyA inh	CSC inhib	Rce1 inhib	others
CCn1c2ccccc2c2cc(NC(=O)COC(=O)c3ccc(NC(=O)CC#N)cc3)ccc21	.	.	1	-3	-37	.	1	i
COc1ccc(N2C(C)=CS/C2=C(/C#N)c2nnc(N3CCOCC3)n2-c2ccccc2)cc1	-8	-20	0	4	.	3	-9	i

Some of the compounds tested; the hit share may differ from the screen's.
